# PABP polyA inh: PABP-poly(A) binding inhibition; P11940; PABP-poly(A) RNA binding, fluorescence polarization; inhibition, % at 35 µM; hit rate 1% among 290,000; AID 2014;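 active means 50% or more with normal probe brightness, or confirmed in later tests; about a fifth of its hits are not listed in these tables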;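 further: calls also rest on retests at 20 µM and on dose response follow-up; controls were probe without protein and protein plus probe with vehicle; some compounds called inactive have numbers as strong as hits; many hits fall short of the cut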
# Target sequence (P11940 whole entry, looked up): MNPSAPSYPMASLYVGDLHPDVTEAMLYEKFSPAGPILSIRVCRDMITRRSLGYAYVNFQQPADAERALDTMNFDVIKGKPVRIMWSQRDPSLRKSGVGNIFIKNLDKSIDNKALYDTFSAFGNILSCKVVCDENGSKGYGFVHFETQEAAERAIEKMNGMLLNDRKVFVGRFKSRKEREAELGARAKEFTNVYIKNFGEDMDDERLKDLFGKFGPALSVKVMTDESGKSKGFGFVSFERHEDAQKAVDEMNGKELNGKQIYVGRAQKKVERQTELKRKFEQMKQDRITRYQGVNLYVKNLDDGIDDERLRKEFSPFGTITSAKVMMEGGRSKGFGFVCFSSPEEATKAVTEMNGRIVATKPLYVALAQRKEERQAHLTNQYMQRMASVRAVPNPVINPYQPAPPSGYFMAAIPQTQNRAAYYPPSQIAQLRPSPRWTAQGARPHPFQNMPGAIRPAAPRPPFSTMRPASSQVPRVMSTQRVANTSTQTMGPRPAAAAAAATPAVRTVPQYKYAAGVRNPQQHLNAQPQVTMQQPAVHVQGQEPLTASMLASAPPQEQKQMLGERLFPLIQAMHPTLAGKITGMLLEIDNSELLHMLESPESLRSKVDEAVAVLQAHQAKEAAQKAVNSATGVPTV
# Env fusion inh: inhibitors of HIV Env-mediated cell fusion | AID 651610 | inhibition, % at 12.3 µM | hit rate 1.1% among 360,000 | HeLa-JRFL Env/CEM21 cell fusion, luciferase;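 active means mean replicate inhibition score of at least 50 and every replicate individually at or above 50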;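 further: 0% = plate neutral controls and 100% = maraviroc near 300 nM; one replicate is shown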
# UUG fidelity: modulators of start codon recognition fidelity in yeast | S. cerevisiae UUG-firefly luciferase reporter, luminescence/redox ratio | activity score, % at 18.7 µM | hit rate 0.13% among 350,000 | AID 602363;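 active means replicate mean at a twofold rise or more, about +100% in these data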;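 further: firefly luciferase made from a UUG start codon reports start codon fidelity; reporter light over untreated wells divided by growth signal over untreated wells; some hits fall short of that in this replicate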
# CSC inhib: cancer stem cell inhibition; cancer stem cell-like cells viability, luminescence; hit rate 1.1% among 300,000; inhibition, % at 7.5 µM;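 active means mean at 75% or more and at least half the replicates too; tested in HMLE shEcad cells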;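 further: 0% = median of negative and 100% = median of positive control wells; the first replicate is given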
# Rce1 inhib: inhibitors of yeast Ras-converting enzyme; yeast membranes, quenched prenylated peptide cleavage fluorescence; calls only; hit rate 0.27% among 290,000; AID 2563;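 active means fall in fluorescence gain of 50% or more versus controls, with final raw signal at or below 3038400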;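 further: plate controls were neutral control wells for no effect and wells lacking membranes for full effect; tested at 10 µM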
# MT1-MMP act inh: blocks activation of human MT1-MMP; P50281; HT1080 RFP-PRO-GFP cells, GFP/RFP ratio fluorescence, overnight; percent of plate control window, DMSO zero; AID 651647; GFP/RFP ratio change, % at 20 µM; hit rate 0.061% among 360,000;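 active means GFP/RFP ratio change of at least 30% with cell ATP level not reduced by more than half and red fluorescence within 50% of control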; further: strong numbers were not always called active
#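 Test system: HT1080 RFP-PRO-GFP cells; Benchmarks: DMSO and RFP-L50D-GFP cell wells; Timing: cells overnight before dosing, compound overnight, 37 °C, 5% CO2; Compound: one 20 µM compound dose with 1% DMSO; Read-out: GFP/RFP fluorescence ratio.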
# eIF4H FP inh: inhibitors of RNA binding by human eIF4H | eIF4H fluorescence polarization binding assay | inhibition, % at 35 µM | hit rate 0.94% among 290,000 | AID 2012;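 active means 50% or more with normal probe brightness, or confirmed in later tests; about a fifth of its hits are not listed in these tables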;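 further: calls also rest on retests at 20 µM and on dose response follow-up; 0% = protein and probe with vehicle and 100% = probe without protein; strong numbers were not always called active; many hits fall short of the cut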
# eIF4H FP inh retest: further read-out of eIF4H FP inh, marked with its call; inhibition, %; compound at 20 µM; confirmation average;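 mean of two retest wells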
# PABP polyA inh retest: recorded beside PABP polyA inh, whose call it bears; inhibition, %; compound at 20 µM; confirmation repeats;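 mean of two retest wells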
# MT1-MMP act inh RFP: second read-out of MT1-MMP act inh, no call of its own (marks repeat the call); RFP signal change, %; measured here: RFP expression control read;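 0 = vehicle wells; hits needed this value within 50% of zero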
# Active calls of the source: *; i = inactive; · = not tested or not shown.
SMILES,PABP polyA inh,Env fusion inh,UUG fidelity,CSC inhib,Rce1 inhib,MT1-MMP act inh,MT1-MMP act inh RFP,eIF4H FP inh,others
COCc1nnc(NC(=O)C2CC(=O)N(C3CCCC3)C2)s1 (configuration not stated),11,-6,-8,-13,i,1,4,-5,
CC(C)c1ccc(NC(=O)CCN2C(=O)c3ccc([N+](=O)[O-])cc3C2=O)cc1,4,-33,-6,-4,i,4,2,-9,
c1nc(COc2nsnc2N2CCOCC2)cs1,9,-4,-9,-3,i,-1,-4,7,
CC(=O)C1=C(O)CC(C)(C)CC1=NCCc1nc2ccccc2[nH]1,-4,12,-18,10,i,2,8,2,
CCCOc1ccc(NC(=O)CCC(=O)NC(C)c2ccccc2)cc1 (configuration not stated),9,-47,-10,-6,i,-3,0,-5,
CCOc1ccc(C(C)=O)cc1COC(=O)CCc1cc(OC)c(OC)c(OC)c1,-21,-2,-1,1,i,0,-1,-9,
C#Cc1ccc([C@@H]2C=C(C(=O)O)O[C@H](OCc3ccc(CO)cc3)C2)cc1,31,-5,-25,-8,i,3,1,59,eIF4H FP inh retest=15;PABP polyA inh retest=47
Cc1cc(C(F)(F)F)nn1CCCNC(=O)c1cnccn1,-3,-43,-12,·,i,6,0,-1,
CCOC(=O)Cc1c(C)nc(-c2ccccc2)[nH]c1=O,-6,·,0,11,i,9,-1,-6,
CCOc1cccc(CN2CCCC(C(=O)c3cc(Cl)ccc3OC)C2)c1O (configuration not stated),-7,5,16,15,i,·,·,-6,
O=C(C[n+]1cccc(NC(=O)c2ccccc2)c1)c1cccc([N+](=O)[O-])c1,12,-3,-12,·,i,1,2,-12,
O=C(CN1C(=O)NC2(CCCCC2)C1=O)NCCC1=CCCCC1,-10,·,-5,-22,i,6,1,6,
Cc1ccc(S(=O)(=O)N(Cc2ccc([N+](=O)[O-])cc2)C(=O)N2CCN(C)CC2)cc1,·,25,·,·,i,-1,3,·,
COc1ccnc2c1c(=O)n(Cc1ccccc1Cl)c(=O)n2C,13,8,-10,-2,i,8,6,-5,
CCCCc1c(C(=O)O)cc(OC)cc1C(=O)O,13,-21,-10,-5,i,3,8,-2,
CC(=O)Nc1ccc(OCC(=O)c2ccc(C)cc2C)cc1,2,·,-13,5,i,4,2,2,
c1ccc(CC2CCN(C(c3cccs3)c3nnnn3C3CCCC3)CC2)cc1 (configuration not stated),-3,-5,3,18,i,-13,-11,-9,
CCCC1CCc2c(sc(N)c2C(N)=O)C1 (configuration not stated),36,·,-9,-4,i,-2,1,11,
CCOC(=O)c1sc(N)c(C(=O)OCC)c1COC(=O)C1CC(=O)N(Cc2ccco2)C1 (configuration not stated),8,·,21,-8,i,2,2,1,
Cc1ccc(C)c(OCC(=O)Nc2ccccc2C(=O)N2CCOCC2)c1,-6,1,8,-20,i,-1,-2,-15,
OCC[C@@H]1C[C@H](O)[C@@H](O)[C@@]2(CCCO2)O1,·,2,-12,-8,i,-1,2,·,
COc1cc(C(=O)O[C@H]2C/C(C)=C/CC[C@]3(C)O[C@@H]3C(O)C2C(C)C)cc(OC)c1OC (some centres not stated),7,3,-6,-12,i,0,-3,-6,
Cc1cc(C)c2nc(N3CCCC(C(=O)NCCN4CCOCC4)C3)sc2c1 (configuration not stated),-6,·,-24,-4,i,3,0,-8,
CC(C)=CCN1CCN(CCCc2ccccc2)CC1CCO (configuration not stated),-4,9,-22,34,i,1,6,4,
CCOC(=O)c1ccc(-c2c(-c3ccc(OC)cc3)oc(=O)c3cc(OC)c(OC)cc23)cc1F,·,8,-12,2,·,5,-4,·,

# Overlap with the part before: 2 entries, followed by the next part.
SMILES,PABP polyA inh,Env fusion inh,UUG fidelity,CSC inhib,Rce1 inhib,MT1-MMP act inh,MT1-MMP act inh RFP,eIF4H FP inh,others
CC(C)=CCN1CCN(CCCc2ccccc2)CC1CCO (configuration not stated),-4,9,-22,34,i,1,6,4,
CCOC(=O)c1ccc(-c2c(-c3ccc(OC)cc3)oc(=O)c3cc(OC)c(OC)cc23)cc1F,·,8,-12,2,·,5,-4,·,
Cc1ccc(NC(=O)CSc2nnc(CNC(=O)c3ccco3)o2)cc1Cl,-2,-1,-16,-13,i,0,1,-9,
Cc1n[nH]c(C)c1Cc1c(F)cccc1Cl,1,-11,·,-10,i,-3,-5,4,
CN1N=C(C(=O)N2CCc3c([nH]c4ccccc34)C2c2ccccc2Cl)CCC1=O (configuration not stated),7,-17,·,4,i,-2,-3,4,
CCCCCCN1C2=NCCN2c2ccccc21,-12,14,-26,1,i,-2,-3,-12,
CCOc1cc(/C=C2/C(=N)N3N=C(C)SC3=NC2=O)ccc1OS(=O)(=O)c1ccc(C)cc1,10,1,-20,2,i,-2,-3,-2,
Cc1cc[n+](CC(=O)Nc2ccccc2)cc1,6,4,1,-7,i,1,4,-14,
COc1ccc(C(=O)NC2CCSC2=O)cc1 (configuration not stated),-7,-66,15,-5,i,1,3,3,
COc1ccc(CCC(=O)Nc2cc3c4c(c2)CC(=O)N4CCC3)cc1,·,·,-11,-3,i,-4,0,·,
O=c1c2c(-c3cccc([N+](=O)[O-])c3)ccnc2[nH]n1-c1ccccc1,11,-7,-23,-1,i,9,-7,0,
COc1ccc(C(=O)NC(=S)Nc2cccc(Cl)c2N2CCOCC2)cc1[N+](=O)[O-],3,-4,-14,60,i,5,1,-10,
CC1CCCC(C)N1C(=O)COC(=O)c1cc([N+](=O)[O-])ccc1N1CCOCC1 (configuration not stated),·,9,2,-3,i,-5,-3,·,
C=CCNC(=O)COC(=O)COc1ccc(Cl)cc1,19,-4,-17,-7,i,0,1,5,
Cc1ccccc1NC(=S)N(CCN1CCCCC1)Cc1ccco1,-1,1,·,-2,i,-4,0,15,
CC(C)C(C(=O)NCC1CCCO1)N(C(=O)CNS(=O)(=O)c1ccc(F)cc1)C1CCCCC1 (configuration not stated),0,-9,9,-3,i,1,3,14,
O=C(CN1C2CCC1CC(NC(=O)Nc1ccccc1)C2)NCc1ccco1 (configuration not stated),-3,-122,-3,-8,i,-4,-4,-8,
COc1ccc(/C=N\NC(=O)c2ccccc2OC)cc1COc1c(F)c(F)c(F)c(F)c1F,4,10,-7,11,i,-3,0,-6,
CC(=O)c1cc2c(cc1NS(=O)(=O)c1ccc(C)cc1)OCO2,-12,-6,-17,0,i,-1,6,-9,
CC(C)CN(C(=O)CN1CCN(c2ccccc2O)CC1)c1c(N)n(CC(C)C)c(=O)[nH]c1=O,0,21,·,-7,i,2,1,-4,
Cc1ccc(NNC(=O)Nc2ccc(Cl)cc2)nn1,4,-46,-3,-4,i,4,1,2,
CCOC(=O)CNC(=O)Nc1cccc(Cl)c1C,-12,-3,·,-15,·,-3,1,-3,
N#Cc1ccc(CN2CCN(C(=O)c3cc(Cl)c4c(c3)OCCO4)CC2)cc1,·,9,6,·,·,2,-8,·,
C=CCNS(=O)(=O)c1ccc(C(=O)OCc2cc(=O)oc3cc(OC)ccc23)cc1,-2,19,-2,4,i,0,-4,22,
CC(C)C[C@@H](CO)N1CCNCCC1=O,-3,-10,-16,-4,i,3,0,1,
O=S(=O)(c1cc(F)cc(F)c1)N1CCN(c2ncccn2)CC1,-2,·,3,6,i,1,3,8,
CCOC(=O)N/N=C\c1ccc(OC(=O)c2ccc3c(c2)OCO3)cc1,-7,9,-12,-15,i,0,0,7,

# Later entries.
SMILES,PABP polyA inh,Env fusion inh,UUG fidelity,CSC inhib,Rce1 inhib,MT1-MMP act inh,MT1-MMP act inh RFP,eIF4H FP inh,others
Cc1noc(C)c1S(=O)(=O)N(CC(=O)NCc1ccc2c(c1)OCO2)c1ccc(C(C)C)cc1,1,-11,-5,7,i,-2,0,5,
CC1=NN(C(=O)Cc2ccccc2)C(O)(c2ccccc2)C1 (configuration not stated),17,2,-7,-17,i,2,-1,-6,
CN(C)CCCNC(=O)C(=O)NCC(c1cccs1)S(=O)(=O)c1ccc(F)cc1 (configuration not stated),·,-227,·,3,i,4,0,·,
COc1ccc(N(CC(=O)Nc2ccc(F)c(Cl)c2)S(=O)(=O)c2c(C)noc2C)cc1,4,-54,-5,41,i,5,4,7,
O=C(CCl)c1cc2c3c(c1)CC(=O)N3CCC2,16,8,-7,-5,i,-4,-3,2,
CCOC(=O)c1c(C)c(C(=O)NCCCOC)c(C)n1C,3,-23,·,-13,i,-2,-3,8,
O=C(NNc1ccccc1Cl)C(O)(c1cccc(C(F)(F)F)c1)c1cccc(C(F)(F)F)c1,-2,10,-19,59,i,-42,-37,8,
C=CCC[C@H](Cc1ccc(F)cc1)C(=O)OC[C@@H](Cc1c[nH]c2ccccc12)NC(=O)[C@H](CC=C)CC(=O)N[C@H](CO)Cc1ccccc1,·,·,-5,24,·,-5,-13,·,
COc1ccccc1NC(=O)N1CCCC1C(=O)Nc1ccc(NC(C)=O)cc1 (configuration not stated),-1,2,-13,15,·,2,-1,7,
O=C(NCc1ccccc1Cl)C1CCC(=O)N(CCCN2CCCC2=O)C1 (configuration not stated),5,-4,-10,2,i,-1,-3,-2,
COc1ccc(NC(=O)C2CC(=O)N(Cc3ccc(C)cc3)C2)cc1S(=O)(=O)N1CCCCC1 (configuration not stated),-8,-8,25,-12,i,6,-9,5,
CCN=C(NCC)SC1CC(=O)N(c2cccc(OCC)c2)C1=O (configuration not stated),8,·,2,0,i,-1,0,-5,
CC1(NC(=O)c2cc(-c3cccs3)nn2-c2ccccc2)CCS(=O)(=O)C1 (configuration not stated),·,-13,17,-12,i,-1,-2,·,
Cc1nc(-c2ccc(Cl)cc2)sc1C1(C)CC(c2ccncc2)=NO1 (configuration not stated),·,9,7,39,i,0,-14,·,

# Five compounds out of the list, arranged by heavy-atom count, rising.
SMILES,PABP polyA inh,Env fusion inh,UUG fidelity,CSC inhib,Rce1 inhib,MT1-MMP act inh,MT1-MMP act inh RFP,eIF4H FP inh,others
O=C(CCl)c1cc2c3c(c1)CC(=O)N3CCC2,16,8,-7,-5,i,-4,-3,2,
CCOC(=O)c1c(C)c(C(=O)NCCCOC)c(C)n1C,3,-23,·,-13,i,-2,-3,8,
CN(C)CCCNC(=O)C(=O)NCC(c1cccs1)S(=O)(=O)c1ccc(F)cc1 (configuration not stated),·,-227,·,3,i,4,0,·,
O=C(NNc1ccccc1Cl)C(O)(c1cccc(C(F)(F)F)c1)c1cccc(C(F)(F)F)c1,-2,10,-19,59,i,-42,-37,8,
C=CCC[C@H](Cc1ccc(F)cc1)C(=O)OC[C@@H](Cc1c[nH]c2ccccc12)NC(=O)[C@H](CC=C)CC(=O)N[C@H](CO)Cc1ccccc1,·,·,-5,24,·,-5,-13,·,

# Screening results: PubChem, several laboratories

# Rows are unselected; any-hit rate near 2.9%.
